From PubChem BioAssay
CSC inhib – cancer stem cell inhibition | inhibition, % at 7.5 µM | hit rate 1.1% among 300,000 | AID 2717 | cancer stem cell-like cells viability, luminescence;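 active = mean at 75% or more and at least half the replicates too; inconclusive = mean and replicates disagree; tested in HMLE shEcad cells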;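 also: 0% = median of negative and 100% = median of positive control wells; the first replicate is given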
PABP polyA inh – blocks human PABP binding to poly(A) RNA; P11940; fluorescence polarization; inhibition, % at 35 µM; AID 2014; hit rate 1% among 290,000;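 active = 50% or more with normal probe brightness, or confirmed in later tests; inconclusive = above 50% with abnormal brightness, or retests that disagree; inactive = below 50% or failed in later tests; about a fifth of its hits are not listed in these tables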;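 also: calls also rest on retests at 20 µM and on dose response follow-up; controls were probe without protein and protein plus probe with vehicle; some compounds called inactive have numbers as strong as hits; many hits fall short of the cut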
Target sequence (P11940 whole entry, looked up): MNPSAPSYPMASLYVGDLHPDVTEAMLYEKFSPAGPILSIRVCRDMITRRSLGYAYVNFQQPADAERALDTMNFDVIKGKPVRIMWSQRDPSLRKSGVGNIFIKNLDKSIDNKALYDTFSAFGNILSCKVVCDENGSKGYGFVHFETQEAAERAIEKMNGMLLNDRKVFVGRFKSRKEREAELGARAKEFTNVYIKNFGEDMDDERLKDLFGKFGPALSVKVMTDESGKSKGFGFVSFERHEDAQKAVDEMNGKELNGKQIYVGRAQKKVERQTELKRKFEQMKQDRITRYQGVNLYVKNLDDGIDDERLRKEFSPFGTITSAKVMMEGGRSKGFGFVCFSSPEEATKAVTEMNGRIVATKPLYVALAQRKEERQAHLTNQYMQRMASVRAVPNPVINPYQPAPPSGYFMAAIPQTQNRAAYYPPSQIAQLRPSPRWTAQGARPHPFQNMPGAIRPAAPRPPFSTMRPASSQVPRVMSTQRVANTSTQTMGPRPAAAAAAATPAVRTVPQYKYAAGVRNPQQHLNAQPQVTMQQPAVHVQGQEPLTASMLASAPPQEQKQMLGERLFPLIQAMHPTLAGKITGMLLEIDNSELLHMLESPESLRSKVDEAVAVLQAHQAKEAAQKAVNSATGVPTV
HIV Env fusion – blocks HIV Env-driven cell-cell fusion. inhibition, % at 12.3 µM. hit rate 1.1% among 360,000. HeLa-JRFL Env/CEM21 cell fusion, luciferase;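 active = mean replicate inhibition score of at least 50 and every replicate individually at or above 50; inconclusive = only one of the two criteria met; inactive = mean below 50 and not all replicates reaching 50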;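 also: 0% = plate neutral controls and 100% = maraviroc near 300 nM; one replicate is shown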
eIF4H inh – inhibitors of RNA binding by human eIF4H | Q15056 | eIF4H fluorescence polarization binding assay | inhibition, % at 35 µM | hit rate 0.94% among 290,000;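 active = 50% or more with normal probe brightness, or confirmed in later tests; inconclusive = above 50% with abnormal brightness, or retests that disagree; inactive = below 50% or failed in later tests; about a fifth of its hits are not listed in these tables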;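 also: calls also rest on retests at 20 µM and on dose response follow-up; 0% = protein and probe with vehicle and 100% = probe without protein; strong numbers were not always called active; many hits fall short of the cut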
Rce1 inhib – blocks yeast Ras-converting enzyme; Q03530; yeast membranes, quenched prenylated peptide cleavage fluorescence; calls only; hit rate 0.27% among 290,000;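 active = fall in fluorescence gain of 50% or more versus controls, with final raw signal at or below 3038400; inconclusive = same 50% fall but final raw signal above 3038400; inactive = fall in fluorescence gain under 50%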;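 also: plate controls were neutral control wells for no effect and wells lacking membranes for full effect; tested at 10 µM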
Target sequence (Q03530 whole entry, looked up): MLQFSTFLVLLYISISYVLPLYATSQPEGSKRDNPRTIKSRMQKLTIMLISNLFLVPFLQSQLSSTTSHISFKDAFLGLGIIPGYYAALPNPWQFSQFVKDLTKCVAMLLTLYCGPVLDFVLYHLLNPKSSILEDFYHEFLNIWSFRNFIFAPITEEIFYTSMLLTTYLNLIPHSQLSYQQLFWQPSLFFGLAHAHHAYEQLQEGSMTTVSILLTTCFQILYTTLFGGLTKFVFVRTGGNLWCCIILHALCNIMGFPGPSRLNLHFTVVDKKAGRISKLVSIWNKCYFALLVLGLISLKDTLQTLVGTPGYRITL
MT1-MMP act inh – MT1-MMP (human) activation inhibition; P50281; HT1080 RFP-PRO-GFP cells, GFP/RFP ratio fluorescence, overnight; percent of plate control window, DMSO zero; GFP/RFP ratio change, % at 20 µM; hit rate 0.061% among 360,000; AID 651647;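 active = GFP/RFP ratio change of at least 30% with cell ATP level not reduced by more than half and red fluorescence within 50% of control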; also: strong numbers were not always called active
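Compound: 20 µM single dose, 1% DMSO / System: HT1080 RFP-PRO-GFP cells / Controls: DMSO and RFP-L50D-GFP cell wells / Read-out basis: GFP/RFP fluorescence ratio / Schedule: overnight compound exposure at 37 °C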
Yeast UUG start – alters start codon recognition fidelity in yeast; hit rate 0.13% among 350,000; AID 602363; activity score, % at 18.7 µM; S. cerevisiae UUG-firefly luciferase reporter, luminescence/redox ratio;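 active = replicate mean at a twofold rise or more, about +100% in these data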;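 also: firefly luciferase made from a UUG start codon reports start codon fidelity; reporter light over untreated wells divided by growth signal over untreated wells; some hits fall short of that in this replicate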
eIF4H inh retest – recorded beside eIF4H inh, whose call it bears; inhibition, %; compound at 20 µM; confirmation average;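 mean of two retest wells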
PABP polyA inh retest – also measured in PABP polyA inh; calls as there; inhibition, %; compound at 20 µM; confirmation repeats;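 mean of two retest wells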
MT1-MMP act inh RFP – second read-out of MT1-MMP act inh, no call of its own (marks repeat the call); RFP signal change, %; measured here: RFP expression control read;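 0 = vehicle wells; hits needed this value within 50% of zero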
* hit, by the source's call; i = inactive; ? = inconclusive; . = no result given; & = joins results of further samples.

SMILES	CSC inhib	PABP polyA inh	HIV Env fusion	eIF4H inh	Rce1 inhib	MT1-MMP act inh	MT1-MMP act inh RFP	Yeast UUG start	others
Cn1c(C=O)c(-c2ccc3cc[nH]c3c2)c2ccccc21	-22.2	.	-2.9	.	.	-6.9	-2.7	-11.8
Cn1nccc1-c1coc2c(C(=O)NCC3CCOCC3)cccc12	.	.	-12.4	.	.	6.5	-6.3	4.5
CNC(=O)c1c(Cl)cnn1-c1ccc(F)cc1	3.5	-10.5	-14.7	-12.7	i	1.0	1.5	.
CCCCC[n+]1ccn(C2=C([O-])c3ccccc3C(=O)/C2=N\S(=O)(=O)c2ccc(Cl)cc2)c1	16.7	0.6	-12.7	1.5	i	6.4	-1.0	.
Cc1ccc(Cl)cc1NC(=O)COC(=O)c1ccc(N2CCCC2)c([N+](=O)[O-])c1	10.8	-5.2	-23.0	-1.8	i	.	.	.
COc1cc(/C=C2/C(=O)NN(c3cccc(C)c3)C2=O)ccc1OC(=O)c1ccco1	-17.3	7.1	9.9	-0.4	i	4.5	1.1	-14.6
CC(C)NC(=O)N(C)C[C@H]1Oc2ccc(NC(=O)Cc3ccccc3)cc2C(=O)N([C@H](C)CO)C[C@@H]1C	-19.0	.	-9.5	.	.	3.6	5.4	-7.3&6.4
CCOC(=O)CC1C(=O)NCCN1C(=O)c1cc2c(=O)n3ccccc3nc2s1 (stereo unspecified)	-4.7	3.5	.	-13.6	?	.	.	.
Nc1ccn(Cc2ccc(F)cc2)n1	-10.1	-8.6	3.1	5.6	i	-7.8	-7.1	-15.4
COc1ccc(CCNC(=O)COC(=O)C23CC4CC(CC(C4)C2)C3)cc1	-16.3	4.6	9.7	-2.4	i	-5.5	-1.7	.
CC1CCN(Cc2cc(=O)oc3cc(O)c(Cl)cc23)CC1	0.4	17.3	9.1	8.6	i	-3.7	0.0	-9.1
O=C(C1=C(O)C(=O)N(c2ncccn2)C1c1cccc(Cl)c1)c1ccco1 (stereo unspecified)	-16.9	40.0	-9.3	28.0	i	-6.7	7.8	-13.3
CCOC(=O)N=Nc1c(O)n(C)c2ccccc12	1.4	-10.8	7.6	-13.1	i	2.2	-2.1	-3.7
CCCCCCOC(=O)Sc1nc2ccccc2o1	38.5	-4.9	-72.0	0.5	i	7.9	12.7	-14.5
O=[N+]([O-])c1ccc(NC(=S)N2CCCC2)cc1	-3.4	-5.9	-4.4	2.3	i	3.8	1.5	-19.7

Three entries drawn at random from those above, as already listed:
SMILES	CSC inhib	PABP polyA inh	HIV Env fusion	eIF4H inh	Rce1 inhib	MT1-MMP act inh	MT1-MMP act inh RFP	Yeast UUG start	others
CC1CCN(Cc2cc(=O)oc3cc(O)c(Cl)cc23)CC1	0.4	17.3	9.1	8.6	i	-3.7	0.0	-9.1
O=[N+]([O-])c1ccc(NC(=S)N2CCCC2)cc1	-3.4	-5.9	-4.4	2.3	i	3.8	1.5	-19.7
CNC(=O)c1c(Cl)cnn1-c1ccc(F)cc1	3.5	-10.5	-14.7	-12.7	i	1.0	1.5	.

Other compounds follow.
SMILES	CSC inhib	PABP polyA inh	HIV Env fusion	eIF4H inh	Rce1 inhib	MT1-MMP act inh	MT1-MMP act inh RFP	Yeast UUG start	others
N=c1sccn1CC(=O)Nc1ccc(S(=O)(=O)N2CCOCC2)cc1	-13.4	1.6	-88.1	1.1	i	7.6	1.6	-18.1
Cc1cc(C)c(SCCc2ccncc2)c(C)c1	3.7	-0.9	0.1	-14.2	i	-6.1	-33.1	-22.3
COCCNC(=O)Cn1ccc2cc(S(=O)(=O)N3CCCCC3)ccc21	3.4	4.6	-4.2	-14.7	i	5.1	1.5	-14.8
CCCNC(=O)CN(c1ccc(F)c(Cl)c1)S(C)(=O)=O	-7.3	1.0	-18.7	-0.1	i	2.7	2.2	-16.8
O=C(COC(=O)C1C2CC3OC(=O)C1C3C2)Nc1ccc(F)cc1 (stereo unspecified)	-16.8	-9.9	11.8	-3.8	.	2.3	2.9	-8.5
C=CCn1c(O)c(N=Nc2nc3ccccc3c(=O)n2-c2ccccc2)c2ccccc21	0.9	7.2	14.2	-3.6	i	-0.1	7.2	-21.3
O=C(COC(=O)/C=C/c1ccc([N+](=O)[O-])cc1)NCC1CCCCC1	5.4	.	-1.6	.	.	-3.0	-1.8	-11.5
O=C1CCC(C(=O)N2CCCCO2)CN1CCc1ccccc1 (stereo unspecified)	-5.1	19.8	-41.6	10.5	i	0.4	2.7	-16.8
S=C(Nc1ccccc1)Nc1ccc(Cl)cc1Cl	-11.1	17.9	-23.6	-1.8	i	5.3	1.6	-10.4
O=C(O)CCSc1nnc(-c2ccccc2)n1-c1ccccc1	-15.0	5.9	-76.9	3.6	i	-0.2	0.5	-21.8
CCOC(=O)C1CCN(S(=O)(=O)c2ccccc2)CC1	.	0.7	38.6	-15.0	i	2.9	3.8	-14.3
COC(=O)/C=C(\C)NC(=O)c1cccs1	-23.2	-5.7	3.5	-5.7	i	0.3	2.7	-6.3
O=[N+]([O-])c1c(NCCCO)cc(Sc2nc3ccccc3s2)c2nonc12	-4.2	14.1	.	4.9	i	5.3	3.1	-4.7
CC(C)c1cc(C(=O)N2CCCC(CCC(=O)N3CCN(c4ccccn4)CC3)C2)no1 (stereo unspecified)	26.2	-10.6	23.3	-4.2	i	10.0	-12.0	-5.5
CCOC(=O)c1c(NC(=O)CN2CCN(C(=O)c3ccco3)CC2)sc2c1CCCC2	19.8	0.3	-30.7	-13.2	i	-3.9	-1.7	-13.2
Cc1oc2nc(SCC(=O)NCc3cccnc3)nc(N)c2c1C	-6.3	-18.1	.	-7.1	i	0.5	4.0	-30.0
O=C(CCn1c(SCC(=O)NCc2ccco2)nc2ccccc2c1=O)NCCc1ccccc1	-5.0	1.7	-55.0	-2.3	i	-2.8	-6.9	-14.8
Cn1c(=O)n(C)c2cc(S(=O)(=O)NCCOCCO)ccc21	4.5	6.6	-18.1	0.7	i	2.0	3.5	-26.0
Cc1c2cn[nH]c(=O)c2c(C)n1Cc1ccc(F)cc1	-8.4	-6.5	-4.0	-7.3	i	3.8	-2.4	-17.7
O=C(NCc1nnc2n1CCCCC2)c1ccc(Cl)cc1Cl	.	2.2	.	-16.6	i	2.9	6.5	-11.4
O=C(CCC(=O)N1CCN(S(=O)(=O)c2ccccc2)CC1)NC1CCCc2ccccc21 (stereo unspecified)	-3.3	-6.5	-115.0	12.0	i	1.9	4.0	-10.9
CCOc1ccccc1N1CCN(C(=O)c2cc(-c3cccnc3)nc3c(Cl)cccc23)CC1	1.4	4.3	.	-8.2	i	-8.7	-16.7	-17.8
COc1ccc(S(=O)(=O)Cc2ccc(C(=O)N3CCN(Cc4ccccc4)CC3)o2)cc1	-5.8	14.7	10.0	9.0	i	1.8	4.3	-17.9
CCOc1ccc2[nH]c(C(=O)N/N=C/c3ccc(OC)cc3)cc2c1	50.5	1.0	-245.0	3.6	i	21.5	-0.4	-20.5
CC(C)CC1NC(=O)c2cccnc2-n2c1nc1cc(F)c(F)cc1c2=O (stereo unspecified)	.	.	3.9	.	.	1.1	2.1	-12.2
O=C(Nc1nnc(-c2ccccn2)o1)c1cccc(Cl)c1	28.3	-6.6	-4.3	8.5	i	-0.7	0.4	.
COCCNC(=O)C(c1ccc(F)cc1)N(Cc1ccco1)C(=O)CCC(=O)Nc1ccccn1 (stereo unspecified)	-9.9	6.2	-3.8	7.7	.	1.6	5.5	-12.7
Cc1cc(C)n(-c2ccc(C(=O)OCC(=O)Nc3ccccc3[N+](=O)[O-])cc2)n1	7.0	-8.9	.	2.7	i	-1.0	1.7	-3.0
O=C1/C(=C/c2ccccn2)SC(=S)N1NS(=O)(=O)c1ccccc1	-5.1	2.3	-4.9	0.6	i	-1.6	1.9	-14.9
Nc1nc(-c2ccccc2)c(N=Nc2cccc3ccccc23)s1	55.5	-6.0	-12.6	-7.7	i	34.5*	-5.3*	.
CC(C)(C)Cc1c(-c2cccc(Br)c2)nc2ccc(Cl)cn12	.	.	3.4	.	.	1.3	6.5	27.1
C[C@H](NC(=O)[C@@H]1Cc2ccccc2CN1C(=O)OC(C)(C)C)C(=O)NCc1ccco1	9.9	6.2	19.6	-9.3	i	-3.2	1.7	-4.6
Cn1c(CS(=O)Cc2c(Cl)cccc2Cl)nnc1SCc1ccc(Cl)cc1 (stereo unspecified)	-3.4	-5.9	62.0*	-4.4	i	-0.1	-6.3	.
COCC(C)OC(=O)C(C#N)c1nc2ccccc2nc1N1CCN(Cc2ccccc2)CC1 (stereo unspecified)	1.1	31.0	.	26.5	i	-21.7	-15.4	-5.8
CC1CCCC(C)N1C(=O)COc1cccc(Oc2ccccc2)c1 (stereo unspecified)	30.1	.	24.5	.	.	-3.2	-9.0	-8.9
Cc1cc2oc(=O)cc(CN3CCCCC3C)c2cc1Cl (stereo unspecified)	-11.3	1.0	6.7	-0.5	i	-1.0	3.9	-8.7
O=C(Nc1ccc(Nc2ccccc2)cc1)c1ccc(F)cc1	45.3	11.2	-43.0	-5.6	i	5.1	-0.2	-14.0
CCOC(=O)N1CCN(S(=O)(=O)N2CCCC(C(=O)NCc3ccc(F)cc3)C2)CC1 (stereo unspecified)	-15.6	4.9	-0.1	-3.5	i	1.4	0.8	-3.7
Cc1ccc(S(=O)(=O)NCC(=O)N(CC(=O)NC2CCCC2)CC2CCCO2)cc1 (stereo unspecified)	8.3	-0.4	2.2	-14.1	i	-2.0	2.6	-3.1
COc1ccc(NC(=O)COC(=O)CCCOc2ccc(Cl)cc2Cl)cc1Cl	18.1	1.3	10.1	-3.4	i	5.3	8.2	.
COc1cccc(NC(=S)NCCN2CCOCC2)c1	-5.7	0.3	-3.6	4.4	i	3.9	6.3	.
O=C1NCC2=C1C(c1ccc(Br)cc1)Nc1ccccc1N2 (stereo unspecified)	-7.5	4.0	-2.9	-9.0	i	1.8	2.6	2.5
COc1ccc(-c2nnc(CSc3nc4ccccc4c(=O)n3CC3CCCO3)o2)cc1OC (stereo unspecified)	22.8	-14.0	28.9	-5.2	i	-0.9	-1.0	-6.8
CCC(C)(CN(C)C)OC(=O)c1ccccc1 (stereo unspecified)	-4.3	.	5.1	.	.	-0.7	5.7	-5.6
CCCN(CCC)S(=O)(=O)c1ccc(C(=O)Nc2cc3oc4ccccc4c3cc2OC)cc1	20.2	-10.2	-28.2	-7.7	i	-1.5	-3.9	.
Cc1cc(C)nc(NC(=O)c2ccc(C)c(C)c2)n1	-2.5	-12.3	-53.9	-6.5	i	-5.0	-1.4	12.9
COc1ccc(C(=O)Nc2c(N)nc[nH]c2=O)cc1	-5.3	.	3.9	.	i	-0.5	4.0	.
NC(=O)N/N=C/c1cccc(C(F)(F)F)c1	5.2	-1.3	32.4	5.3	i	-2.8	-1.9	-31.3
O=C(c1cccnc1)C1CCCN(Cc2nc(Cc3ccccc3F)no2)C1 (stereo unspecified)	-8.8	2.7	-10.4	-5.2	i	-3.0	-5.5	14.5
O=C(Nc1ccccn1)c1ccc(=O)[nH]n1	-12.5	73.7	.	-8.1	i	2.3	4.2	-2.3	eIF4H inh retest=-6.7;PABP polyA inh retest=-5.6
Cc1ccccc1CNC(=O)CN(c1ccccc1Cl)S(C)(=O)=O	-8.8	0.1	8.6	-2.4	i	1.9	3.2	-17.6
O=C(Nc1ncccn1)C1=C(O)c2ccccc2S(=O)(=O)N1Cc1ccccc1	-11.0	7.7	13.1	-10.8	i	-1.5	-0.9	-5.5
